# Source: PubChem (National Center for Advancing Translational Sciences (NCATS))
# Cruzain inh noDet: qHTS Assay for Promiscuous and Specific Inhibitors of Cruzain (without detergent). Cruzipain (Trypanosoma cruzi), P25779. purified cruzain, Z-FR-AMC fluorescence, no detergent. Potency, µM, for the others: max response, negative = inhibition, hits mostly inhibitors. actives 2.3% (n = 200,000); active = well fitted curve in the direction sought with a large enough effect; inconclusive = small, poorly fitted or top-dose-only effect, or another doubt; inactive = no such curve, though single readings can be large; an effect the other way counts as inactive or inconclusive;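 also: plate controls were enzyme without inhibitor for no effect and buffer without enzyme for full effect; nearly all actives have a fitted effect of over 40% in size; top concentration of the series not given in the record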
# Target sequence (P25779 123-467 limits assumed): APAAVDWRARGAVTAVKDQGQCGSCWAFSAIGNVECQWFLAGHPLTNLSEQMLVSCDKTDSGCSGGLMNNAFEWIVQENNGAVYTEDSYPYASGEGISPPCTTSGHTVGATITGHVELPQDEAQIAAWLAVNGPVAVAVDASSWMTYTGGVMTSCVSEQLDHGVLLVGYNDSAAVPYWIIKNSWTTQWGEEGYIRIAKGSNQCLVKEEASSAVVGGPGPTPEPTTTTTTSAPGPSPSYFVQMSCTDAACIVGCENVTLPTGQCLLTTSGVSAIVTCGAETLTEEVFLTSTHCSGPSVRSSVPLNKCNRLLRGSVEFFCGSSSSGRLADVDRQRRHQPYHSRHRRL
#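 Detergent-free condition (0.00005% Triton X-100) in acetate buffer pH 5.5 with DTT. 1.5 nM enzyme and compound were pre-mixed 15 min, then 2 uM Z-FR-AMC substrate added; reaction progress from fluorescence change between first and third reads (60 s).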
# NS1 function inh: qHTS Assay for Inhibitors of Influenza NS1 Protein Function. Potency, µM (top dose mostly 46.1 µM), without a hit: top-dose activity, positive = more growth. AID 2326, 2010. S. cerevisiae slowed by influenza A NS1, growth recovery by OD600. actives 0.4% (n = 270,000); also: actives are rising curves; nearly all actives have a fitted effect of over 50% in size
#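 Read-out: OD600 growth recovery of NS1-expressing budding yeast. Cells grown overnight at 30C in -URA glucose medium, washed, resuspended and diluted 1:100 in 2% galactose assay medium, pH 6.0. Same strain lacking NS1 served as positive control.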
# RE007 growth inh: qHTS Assay for Inhibitors of the HIV-1 protein Vpr; S. pombe RE007 Vpr strain, BacTiter-Glo ATP luminescence, 24 h; control for the full effect not named in the record; Potency, µM (doses to about 92.2 µM), without a hit: top-dose activity change, negative = less growth; actives 0.21% (n = 360,000); AID 651644, 2012; active = well fitted falling curve with a large enough effect; inconclusive = small, poorly fitted or top-dose-only effect; inactive = no such curve, though single readings can be large or run the other way;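 also: % is scaled to controls: 0 for no effect and ±100 for the full control effect; nearly all actives have a fitted effect of over 50% in size; the assay follows cell death caused by Vpr and the record does not say whether a fall means rescue or toxicity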
#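 Fission yeast strain RE007, carrying one chromosomally integrated HIV-1 vpr copy, was seeded at OD 0.01 in PMG+AL medium with 23 nL pinned compound. After 24 h at 30 °C and 99% humidity, viability was read by BacTiter-Glo luminescence.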
# SARS PLP yeast: qHTS of Yeast-based Assay for SARS-CoV PLP; S. cerevisiae expressing SARS-CoV PLpro, growth rescue; control for the full effect not named in the record; Potency, µM (titrated, usually from 32.9 µM), for the others: at the highest dose activity, positive = growth rescue; actives 0.19% (n = 330,000); AID 485353, 2010; also: 0% is about no effect; nearly all actives have a fitted effect of over 55% in size; growth read by luminescence after 48 h
# MARV entry inh: qHTS for inhibitors of binding or entry into cells for Marburg Virus | AID 540276, 2011 | Potency, µM (titrated, usually from 37.8 µM), for inactives: at the top dose activity change, negative = inhibition, usual class: inhibitors | Marburg virus pseudotyped entry inhibition, cell reporter; control for the full effect not named in the record; about a third of the inactives were read at about 46 µM | actives 1.8% (n = 300,000); active = well fitted inhibition curve with a large enough effect; inconclusive = small, poorly fitted or top-dose-only effect, or effect the other way; inactive = flat fitted curve, though single readings scatter; tested in HEK293 cells; about a fifth of its hits are not listed in these tables; also: % is scaled to controls: 0 for no effect and ±100 for the full control effect; luciferase read-out
# Cruzain Triton: qHTS Assay for Promiscuous and Specific Inhibitors of Cruzain (with detergent). Potency, µM, without a hit: max response, negative = inhibition, hits mostly inhibitors. AID 1478, 2009. actives 0.43% (n = 200,000). purified cruzain, Z-FR-AMC fluorescence, 0.01% Triton; active = well fitted curve in the direction sought with a large enough effect; inconclusive = small, poorly fitted or top-dose-only effect, or another doubt; inactive = no such curve, though single readings can be large; an effect the other way counts as inactive or inconclusive;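 also: plate controls were neutral wells for no effect and buffer without enzyme for full effect; nearly all actives have a fitted effect of over 40% in size; top concentration of the series not given in the record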
#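 Purified cruzain (1.5 nM final) was preincubated with compounds for 15 min at room temperature in 100 mM sodium acetate pH 5.5, 5 mM DTT, 0.01% Triton X-100. Reaction started with 2 uM Z-FR-AMC; AMC fluorescence change over 60 s gave activity.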
# StopGo reporter: High Throughput Screening for Foot and Mouth Disease Virus Antivirals. actives 1.2% (n = 410,000). Potency, µM (highest dose often 57.9 µM), inactives show at the highest dose signal change, negative = less light. human cells with a luciferase reporter of 2A StopGo recoding; control for the full effect not named in the record. AID 1159524, 2015; active = well fitted falling curve with a large enough effect; inconclusive = small, poorly fitted or top-dose-only effect; inactive = no such curve, though single readings can be large or run the other way; tested in HEK293T cells; also: % is scaled to controls: 0 for no effect and ±100 for the full control effect; nearly all actives have a fitted effect of over 45% in size; luciferase light after 4 h
# Lassa entry inh: qHTS for Inhibitors of binding or entry into cells for Lassa Virus; Lassa virus pseudotype entry inhibition, cell reporter; control for the full effect not named in the record; Potency, µM (doses to about 37.9 µM), without a hit: at the highest dose activity change, negative = inhibition, most hits filed as inhibitors; actives 1.2% (n = 300,000); AID 540256, 2011; active means well fitted inhibition curve with a large enough effect; inconclusive means small, poorly fitted or top-dose-only effect, or effect the other way; inactive means flat fitted curve, though single readings scatter; tested in HEK293 cells; also: % is scaled to controls: 0 for no effect and ±100 for the full control effect; nearly all actives have a fitted effect of over 50% in size; luciferase read-out
# The depositor's hits bear a star; ? = inconclusive; . = not tested or not shown; [ ] = remark or other dose. Unless noted, calls follow the shape of the dose curve; as a rule, active means well fitted rising curve with a large enough effect; inconclusive means small, poorly fitted or top-dose-only effect; inactive means no such curve, though single readings can be large or run the other way. Potency is read from the fitted curve at half-maximal effect.
SMILES,Cruzain inh noDet,NS1 function inh,RE007 growth inh,SARS PLP yeast,MARV entry inh,Cruzain Triton,StopGo reporter,Lassa entry inh
CN1C(=O)/C(=C/c2ccc(Cl)s2)C(=O)NC1=S,.,12%,-14%,3%,3%[46.1 µM],.,?,?
COc1ccc(/C=C/C(=O)OCC(=O)NC2CCCCCCC2)cc1,.,.,-6%,-5%,?,.,-8%,13%
Cc1cc(C(=O)Cn2cnc3cc([N+](=O)[O-])ccc3c2=O)c(C)n1CC1CCCO1 (stereo unspecified),.,1%,4%,-4%,0%[46.1 µM],.,-10%,2%
COc1ccc(CNC(=O)c2ccc(CSc3nc4ccncc4n3Cc3ccccc3F)cc2)cc1,-8%,.,.,.,-27%[46.1 µM],-3.0%,7%,.
COc1ccc(OCc2cccc(C(=O)N3CCCC3)c2)cc1,22%,-11%,-2%,8%,?,-7.4%,17%,?
CC1CCC(NC(=O)C2CC(=O)N(c3ccc(Cl)cc3)C2)CC1 (stereo unspecified),.,13%,5%,1%,.,.,-12%,.
O=C(Nc1ccc(C(=O)N2CCCC2)cc1)c1ccccc1F,2%,4%,-26%,-6%,-10%,3.1%,45%[activator],?
COc1ccc(C(=O)NC(=S)Nc2ccc(NC(=O)c3ccco3)cc2)cc1[N+](=O)[O-],-23%,19%,-3%,-25%,-12%,-6.5%,-5%,?
CN(Cc1ccccn1)Cc1cn(Cc2ccccc2)nc1-c1ccc2c(c1)OCO2,.,5%,0%,-1%,-29%[46.1 µM],.,10%,-12%
O=C(c1cc2n(n1)C(C(F)(F)F)CC(c1ccco1)N2)N1CCN(c2ccccn2)CC1 (stereo unspecified),12%,-18%,10%,?,-21%,-3.4%,?,-20%
COc1ccccc1CC(=O)NNC(=O)CN(C)S(=O)(=O)c1ccc(Cl)cc1,.,.,10%,-2%,11%,.,13%,0%
CC(=O)Nc1ccc(/C(C)=N/NC(=O)CN(c2ccccc2Br)S(C)(=O)=O)cc1,-3%,12%,9%,17%,?,-1.8%,-18%,7%
COc1cccc(CNC(=O)C2CCC(CNc3nc(=S)[nH]c4ccccc34)CC2)c1 (stereo unspecified),.,.,-12%,-2%,-7%[46.1 µM],.,-11%,.
Cc1cc(F)ccc1S(=O)(=O)Nc1ncnc2sccc12,.,.,1%,4%,15%[46.1 µM],.,24%,-13%
CSc1nnc(-c2sccc2OCc2ccc(C)cc2)n1C,7%,-128%,12%,-3%,-18%,2.5%,-21%,0%
COc1ccc(Cn2c(=S)[nH]c3cc(C(=O)N4CCN(c5ccccc5)CC4)ccc3c2=O)cc1,.,15%,1%,-12%,-7%[46.1 µM],.,-13%,7%
O=C(CSc1nnc(-c2cccnc2)o1)Nc1cccc(Cl)c1,.,-4%,0%,1%,?,.,9%,26%[46.1 µM]
O=C(Nc1cccc2cccnc12)c1cccc([N+](=O)[O-])c1,.,-6%,-25%,0%,.,.,60%[activator],.
CN(C)c1ccc(S(=O)(=O)NCC(=O)OCC(=O)Nc2cc(Cl)cc(Cl)c2)cc1[N+](=O)[O-],6%,-2%,-2%,-1%,4%,-10%,-10%,-3%
O=C(CC(=O)c1ccccc1)Nc1ccccc1C(F)(F)F,.,-2%,-17%,-1%,?,.,11%,-26%[46.1 µM]
CCN(CC)C(=O)CN(C#N)c1nc(OC)nc(N(C)C)n1,-16%,-2%,3%,0%,-2%,-0.9%,-8%,0%
O=C(N[C@@H](Cc1c[nH]c2ccccc12)C(=O)O)C1CCN(S(=O)(=O)c2cccs2)CC1,.,2%,-1%,2%,.,.,0%,.
Cc1ccc(CN2C(=O)c3ccccc3CC2(C)C(=O)NC2CCCCC2)cc1 (stereo unspecified),5%,.,.,.,-9%[46.1 µM],0.0%,-18%,.
CCOc1cc(C(=S)N2CCOCC2)ccc1OS(=O)(=O)c1ccc(NC(C)=O)cc1,8%,-11%,9%,-2%,-16%,-0.2%,.,?
Cc1cc(C(=O)O)c(C)n1-c1ccccc1,-3%,-8%,3%,0%,14%,1.0%,-4%,12%
Cc1ccc(-c2nc3cc(C(C)C)ccc3o2)cc1NC(=O)c1cc([N+](=O)[O-])ccc1N1CCOCC1,-5%,.,.,.,?,-0.9%,9%,-1%[46.1 µM]
O=C(CNC1CCCCC1)N1CCc2ccccc2C1,2%,-1%,8%,21%,6%,8.6%,12%,16%
Cc1cc(C)c(NC(=O)CSc2cccc[n+]2[O-])c(C)c1,.,.,0%,0%,3%,.,?,2%
O=C(CN1CCN(CC(=O)Nc2ccccc2Cl)CC1)Nc1ccc(F)c(F)c1,.,-1%,-10%,0%,.,.,?,.
O=C(/C=C(\c1ccccc1)n1cncn1)c1ccccc1,0%,14%,9%,13%,?,-4.0%,-14%,-2%
COc1ccc(C)cc1S(=O)(=O)n1c([N+](=O)[O-])cnc1C,.,8%,-1%,8%,-2%[46.1 µM],.,1%,7%[46.1 µM]
CN1CCN(C(=O)/C=C/c2cn(-c3ccccc3)nc2-c2ccc3c(c2)OCCO3)CC1,.,0%,0%,0%,21µM*,.,24%,?
CCOc1ccc2nc(/N=C/c3c(C)[nH]n(-c4ccc(C)cc4)c3=O)sc2c1,16%,-16%,13µM*,-77%,1%,-6.5%,-20%,-3%
COC(=O)C1=C(C)NC2=C(C(=O)CCC2)C1c1coc2ccccc2c1=O (stereo unspecified),-1%,-15%,18%,3%,0%,-7.6%,-14%,9%
Cc1cc(C)nc(SC2=CS(=O)(=O)c3ccccc32)n1,-7%,-5%,14%,7%,4.5µM*,2.9%,?,?
CCOc1ccccc1NC(=O)CSc1ccc(-c2ccco2)nn1,.,-4%,-7%,-3%,-28%,.,-23%,-9%
COCCNC(=O)/C(C#N)=C/c1ccc(O)c([N+](=O)[O-])c1,.,2%,-19%,-3%,.,.,1%,.
Cn1c(=O)cc(SCC(=O)N2CCN(c3ccccc3F)CC2)c2cc(Cl)ccc21,0%,.,.,.,1%[46.1 µM],-1.5%,-23%,-22%[46.1 µM]
CC(=O)N1N=C(c2ccccc2)OC12CCCC2,.,-1%,1%,0%,.,.,-18%,.
Cc1ccc(-c2cc(C(=O)NCC3CCCO3)no2)cc1 (stereo unspecified),0%,-42%,-4%,-13%,?,-0.5%,27%,?
O=C(C#Cc1ccccc1)Nc1ccc(F)cc1,.,-51%,-14%,-8%,?,.,11%,?
O=C(CN1CCOCC1)N/N=C/c1ccco1,.,8%,-9%,1%,?,.,12%,15%
O=C1c2ccccc2C(=O)N1Cc1nc2ccccc2c(=O)n1CCN1CCOCC1,.,-19%,28%,.,18%,.,0%,?
CCC(=O)Nc1ccc(C)cc1-c1nc2ccccc2n(C(C)C(=O)Nc2ccccc2CC)c1=O (stereo unspecified),4%,.,.,.,-2%[46.1 µM],-1.6%,?,6%[46.1 µM]
COc1ccc2c(c1)C(C)=CC(C)(C)N2S(=O)(=O)c1ccc(Br)cc1,.,-4%,-3%,-4%,?,.,-17%,?
O=C(O)C1Nc2c(O)cccc2C2C=CCC12 (stereo unspecified),-12%,8%,16%,?,?,-7.6%,-28%,?
Cc1cc(C(F)(F)F)n(-c2nc(C(=O)NNS(=O)(=O)c3ccccc3)cs2)n1,0%,9%,-21%,3%,-13%,0.9%,0%,-7%
CCOC(=O)C(Cc1ccc(OC)c([N+](=O)[O-])c1)NC(=O)CCC(=O)Nc1ccc(OC)cc1 (stereo unspecified),.,-10%,11%,0%,11%[46.1 µM],.,14%,-9%[46.1 µM]
CCN(CC)C(=O)C1CCN(S(=O)(=O)c2ccc3c(c2)CCCN3C(C)=O)CC1,-2%,.,.,.,.,-0.2%,-29%,-17%[46.1 µM]
Cc1c(C(=O)NCc2ccco2)sc2nc(-c3ccccc3)cn12,-16%,-210%,-5%,-14%,.,-7.0%,9%,.
C=CCN1C(=O)C(C(C)CC)NC1=S (stereo unspecified),-2%,-3%,5%,13%,6%,3.4%,1%,13%
CCc1ccc(OCC(=O)N(C)C2CCS(=O)(=O)C2)cc1 (stereo unspecified),0%,2%,-14%,10%,19%,4.4%,-21%,0%
CCc1cccc(C)c1NC(=O)c1ccc2c(c1)CCN2S(C)(=O)=O,.,-2%,-13%,-3%,?,.,-3%,-22%[46.1 µM]
CCN(CCn1cccn1)C(=O)CCc1nnc(C2(c3ccc(Cl)cc3)CCC2)o1,.,-1%,15%,0%,?,.,-8%,18%
CCCCOc1nc2ccccc2c(=O)n1-c1ccccc1,-8%,-34%,3%,-40%,-3%,0.7%,-26%,?
Cn1cc(C(=O)N2CCC3(CC2)OCCO3)c2c3ccccc3n(C)c2c1=O,-2%,0%,-4%,4%,18%,-6.0%,-4%,8%
CC(C)[C@H](NC(=O)c1ccco1)C(=O)OCC(=O)c1ccc2c(c1)NC(=O)CO2,.,9%,0%,1%,14%[46.1 µM],.,-9%,3%
CN(CC(=O)Nc1ccccc1C(F)(F)F)C(=O)CCc1nc2ccccc2c(=O)[nH]1,.,.,-6%,.,-16%,.,-8%,3%
COC(=O)c1cc(C)sc1NC(=O)CCc1ccccc1,.,-8%,1%,-2%,2%,.,-14%,20%
COc1cc2c(cc1OC)C(c1cc3ccc(C)cc3[nH]c1=O)N(C(=O)c1ccco1)CC2 (stereo unspecified),.,21%,7%,-1%,?,.,-20%,-5%[46.1 µM]

# Rows are unselected. Share with any hit: about 4.7%.
